# DUX4 txn inh: inhibitors of DUX4-driven ZSCAN4 reporter expression, primary screen, 293T cells, Gaussia and Italica luciferase | activity change, negative = inhibition, % (test concentration not listed) | actives 0.8% (n = 37,000) | AID 1224904, 2016 | 293T-iDUX4 ZSCAN4-Gaussia luciferase reporter, 24 h; hits give low values;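 active means -10% or lower and over 25 points stronger than a control reporter; inconclusive means -10% or lower with a smaller gap; inactive means above -10%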;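 further: 0% = median of neutral control wells and -100% = median of positive control wells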
# DUX4 txn inh difference: recorded beside DUX4 txn inh, whose call it bears; Gaussia minus Italica difference, %; measured here: selective DUX4 reporter inhibition;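 worked out from the two reporters; negative = selective loss of the DUX4 reporter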
# DUX4 txn inh control: recorded beside DUX4 txn inh, whose call it bears; activity change, negative = inhibition, %; measured here: Italica tet-on control reporter;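 0 = neutral control and -100 = positive control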
# The depositor's hits bear a star; ? = inconclusive; / = not tested or not shown. Some of the compounds tested (hit frequency here may not be typical).
SMILES,DUX4 txn inh,DUX4 txn inh difference,DUX4 txn inh control
C[C@@H]1CN([C@H](C)CO)C(=O)c2cc(N(C)C)ccc2O[C@@H](C)CCCCO[C@H]1CN(C)Cc1ccc(C(=O)Nc2ccccc2N)cc1,-3,-1,-1.9
C[C@@H]1CN([C@@H](C)CO)C(=O)CCCn2nncc2CO[C@@H]1CN(C)C(=O)Nc1ccc(C(F)(F)F)cc1,3,6,-2.3
O=C(Cc1ccncc1)N1CC(=O)N2[C@@H](CO)[C@H](c3ccc(C4=CCCC4)cc3)[C@@H]2C1,6,11,-5.0
O=C(O)C[C@H]1C[C@H]2c3cc(NC(=O)Cc4ccncc4)ccc3O[C@H]2[C@H](CO)O1,5,2,3.4
O=C(NC1CCC1)[C@@H]1[C@@H](CO)[C@@H]2Cn3c(ccc(/C=C/c4ccccc4)c3=O)[C@@H]2N1Cc1ccncc1,-6,-7,1.2
COc1ccc(NC(=O)N(C)C[C@@H]2OCc3ccccc3-c3c(n(C)c4ccccc34)C(=O)N([C@@H](C)CO)C[C@H]2C)cc1,4,6,-1.8
COc1ccc2c3c(n(C)c2c1)[C@@H](CO)N(C(=O)c1ccncc1)CC31CN(C)C1,15,3,13
C[C@@H]1CN([C@H](C)CO)C(=O)c2cccc(NS(=O)(=O)c3ccc(F)cc3)c2O[C@H]1CN(C)S(=O)(=O)c1cccs1,0,-1,0.5
COc1ccc(-c2ccc([C@@H]3[C@@H](CO)N4C(=O)CN(C(=O)NC(C)C)C[C@H]34)cc2)cc1,12,7,5.3
COc1ccc(S(=O)(=O)Nc2cccc3c2O[C@H](CN(C)C(=O)Nc2cccc4ccccc24)[C@H](C)CN([C@@H](C)CO)C3=O)cc1,-1,0,-0.8
O=C(C[C@@H]1CC[C@@H]2[C@H](COC[C@H](O)CN2S(=O)(=O)c2cccc(Cl)c2)O1)Nc1ccc(-c2ccccc2)cc1,?,/,/
O=C(c1ccccc1F)N1C[C@H]2[C@@H](c3ccccc31)[C@H](CO)N2C(=O)C1CCCC1,-6,-3,-3.5
C/C=C/c1ccc([C@H]2[C@@H](CO)N(c3ncc(CC)s3)[C@H]2C#N)cc1,-1,-1,-0.1
CCCNC(=O)N(C)C[C@H]1Oc2cc(C3=CCCC3)ccc2S(=O)(=O)N([C@H](C)CO)C[C@@H]1C,0,-5,5.1
O=C(C[C@@H]1C[C@@H]2c3cc(NC(=O)Nc4ccc(C(F)(F)F)cc4)ccc3O[C@@H]2[C@@H](CO)O1)NCc1ccc2c(c1)OCO2,-7,-10,2.5
COC(=O)[C@H]1[C@H](CO)[C@H]2Cn3c(ccc(-c4cncnc4)c3=O)[C@H]2N1CCC(F)(F)F,-4,-7,2.8
CCCNC(=O)C[C@H]1CC[C@@H]2[C@H](COC[C@@H](O)CN2C(=O)Nc2c(C)noc2C)O1,6,6,0.3
Cc1ccc(S(=O)(=O)N[C@@H]2CC[C@@H](CC(=O)N3CCc4ccccc4C3)O[C@H]2CO)cc1,1,-2,3.3
CN1[C@@H]2c3ccc(/C=C/c4ccccc4)c(=O)n3C[C@@H]2[C@@H](CO)[C@@H]1C(=O)NC1CCCCC1,?,/,/
Cc1ccccc1S(=O)(=O)N[C@H]1CC[C@H](CCn2cc(-c3ccc(F)cc3)nn2)O[C@@H]1CO,-1,0,-1.3
O=C(C[C@@H]1C=C[C@@H](NC(=O)C2CCC2)[C@H](CO)O1)NC1CCCCC1,-1,-1,-0.1
COCC(=O)N(C)C[C@@H]1[C@@H](c2ccccc2)[C@H](CO)N1C(=O)Cc1cccnc1,2,2,0.4
COc1ccc(-c2ccc([C@@H]3[C@@H](CO)N(C(=O)C4CCOCC4)[C@H]3C#N)cc2)cc1,-3,1,-4.6
CN(C)C(=O)c1cccc(-c2cccc(-c3nc(C(=O)N4CCCCC4)cc4c3[C@H](CCO)N([S@@](=O)C(C)(C)C)C4)c2)c1,-2,-2,-0.3
CCS(=O)(=O)N1CCCCN2[C@H](CO)[C@H](c3ccc(-c4ccccc4)cc3)[C@H]2C1,-1,-5,4.4
CCCNC(=O)C[C@H]1CC[C@H]2[C@@H](COC[C@H](O)CN2C(=O)CC)O1,2,1,0.9
COc1ccccc1-c1ccccc1[C@H]1[C@@H](C#N)N(C(=O)C2CCOCC2)[C@@H]1CO,4,-3,7.7
CO[C@@H]1CN(C)C(=O)c2ccc(NC(=O)C3CC3)cc2OC[C@@H](C)N(C(=O)c2cccnc2)C[C@@H]1C,5,2,3.3
CCCNC(=O)C[C@@H]1CC[C@H]2[C@H](COc3ccc(NS(=O)(=O)c4ccccc4C)cc3C(=O)N2C)O1,2,-6,7.5
N#C[C@H]1[C@H](c2ccc(-c3cccnc3)cc2)[C@@H](CO)N1C(=O)C1CCC1,-6,-4,-1.6
N#C[C@@H]1[C@@H](c2ccc(C#CC3CCCC3)cc2)[C@@H](CO)N1C(=O)Cc1ccccn1,0,-6,5.9
C[C@@H]1CN([C@H](C)CO)C(=O)Cc2cc(NS(=O)(=O)c3ccccc3)ccc2O[C@@H]1CN(C)Cc1ccc(C(=O)O)cc1,3,1,1.8
O=C(C[C@H]1CC[C@H]2NC[C@H](O)COC[C@@H]2O1)Nc1ccccc1,-4,-2,-2.4
O=C(NCC[C@H]1CC[C@@H](NS(=O)(=O)c2ccc(F)cc2)[C@@H](CO)O1)c1ccc2c(c1)OCO2,1,0,0.5
N#C[C@H]1[C@@H](c2ccc(C#Cc3cccc(F)c3)cc2)[C@H](CO)N1C(=O)C1CCC1,5,4,0.2
O=C(C[C@@H]1CC[C@@H]2[C@H](COC[C@@H](O)CN2Cc2cccc(Cl)c2)O1)N1CCCCC1,-3,0,-3.1
COc1cccc(C(=O)Nc2ccc3c(c2)C(=O)N(C)[C@H]2CC[C@@H](CC(=O)N[C@@H](C)c4ccccc4)O[C@H]2CO3)c1,-4,-3,-0.6
CCS(=O)(=O)N(C)C[C@H]1OCc2ccccc2-c2c(n(C)c3ccccc23)C(=O)N([C@H](C)CO)C[C@H]1C,6,4,2.0
CCCNC(=O)[C@@H]1[C@@H](CO)[C@@H]2Cn3c(cccc3=O)[C@@H]2N1C(=O)C1CC1,-2,2,-3.6
O=C(C[C@@H]1C=C[C@@H](NC(=O)CC2CC2)[C@H](CO)O1)NCC(F)(F)F,-1,-5,4.0
O=C(c1ccncc1)N1CC(=O)N2[C@H](CO)[C@@H](c3ccc(-c4ccccc4F)cc3)[C@@H]2C1,-3,-8,5.3
CO[C@@H]1CC[C@@H]2CCOc3c(C#N)cccc3C(=O)N(C)C[C@@H](OC)[C@H](C)C(=O)N(C)C[C@@H]1O2,-2,-1,-0.3
CO[C@H]1CC[C@@H]2CCOc3c(C#N)cccc3C(=O)N(C)C[C@@H](c3ccccc3)CC(=O)N(C)C[C@H]1O2,-2,-2,-0.6
CN(C)C(=O)C[C@@H]1CC[C@H]2[C@@H](COC[C@@H](O)CN2C(=O)C2CCOCC2)O1,8,10,-2.4
CCCNC(=O)[C@@H]1[C@@H](CO)[C@@H]2Cn3c(ccc(-c4ccc(F)cc4)c3=O)[C@@H]2N1CCC,-6,-2,-3.2
O=C(C1CCCCC1)N1C[C@H]2[C@@H](c3ccccc31)[C@@H](CO)N2C(=O)c1ccccc1F,5,2,2.3
O=C(O)C[C@H]1C[C@H]2c3cc(NC(=O)NC4CCCC4)ccc3O[C@H]2[C@H](CO)O1,4,1,2.6
C[C@@H]1CCCCO[C@@H](CN(C)C(=O)CCCN(C)C)[C@@H](C)CN([C@@H](C)CO)C(=O)c2cc(N(C)C)ccc2O1,-1,-2,1.3
C/C=C/c1ccc([C@H]2[C@@H](CO)N[C@@H]2CNC(=O)CC2CC2)cc1,3,3,0.3
N#C[C@@H]1[C@H](c2ccccc2-c2cccc(F)c2)[C@H](CO)N1C(=O)NC1CCCCC1,?,/,/
O=C(C[C@@H]1CC[C@@H]2[C@H](COC[C@@H](O)CN2Cc2cc(F)ccc2F)O1)NCc1ccccc1,6,6,0.3
CC(C)NC(=O)N1[C@H](CO)[C@@H]2c3ccccc3N(C(=O)Nc3cccc(Cl)c3)C[C@@H]21,6,3,2.6
N#C[C@@H]1[C@H](c2ccccc2)[C@H](CO)N1C(=O)c1cccnc1,4,5,-1.8
O=C(c1cnccn1)N1CC(=O)N2[C@H](CO)[C@@H](c3ccc(C#CC4CC4)cc3)[C@@H]2C1,12,5,7.0
O=S(=O)(NC[C@H]1N[C@H](CO)[C@@H]1c1ccccc1)c1ccccc1,0,-2,1.5
C[C@@H]1CN([C@@H](C)CO)C(=O)c2cc(-c3cccc(C#N)c3)cnc2O[C@@H]1CN(C)C(=O)C1CCOCC1,-1,-3,2.3

# (more compounds)
SMILES,DUX4 txn inh,DUX4 txn inh difference,DUX4 txn inh control
CO[C@H]1CN(C)C(=O)c2cc(NC(=O)C3CC3)ccc2OC[C@@H](C)N(C(=O)c2ccncc2)C[C@H]1C,-2,-4,2.2
COCC(=O)N1[C@@H]2CN(C(=O)c3cccnc3)c3ccccc3[C@@H]2[C@@H]1CO,0,-1,1.4
CO[C@H]1CN(C)C(=O)c2ccc(NC(=O)c3cccc(F)c3)cc2OC[C@@H](C)N(CC2CC2)C[C@@H]1C,?,/,/
O=S(=O)(c1cccc(F)c1)N1CC[C@H]2[C@H](CO)Nc3ccc(Br)cc3[C@H]21,-6,-3,-3.8
Cc1ccccc1-c1ccc([C@@H]2[C@@H](CO)N3C(=O)CN(C(=O)Cc4ccccn4)C[C@@H]23)cc1,?,/,/
CN(C)CC(=O)N1[C@@H]2c3ccc(C4=CCCC4)c(=O)n3C[C@H]1[C@H](CO)[C@H]2C(=O)NCC1CCCCC1,-2,3,-5.1
CO[C@@H]1CN(C)C(=O)c2cc(NC(=O)c3ccc(F)cc3)ccc2OC[C@@H](C)N(C(=O)CC2CC2)C[C@H]1C,4,-3,7.8
N#Cc1ccc(-c2ccc(C3[C@H]4CNC[C@@H]3N4C(=O)Nc3ccc(Cl)cc3)cc2)cc1 (stereo partly specified),5,5,-0.1
COc1ccc(S(=O)(=O)Nc2ccc3c(c2)C(=O)N([C@H](C)CO)C[C@@H](C)[C@@H](CN(C)C(=O)Nc2c(C)noc2C)OCCCC[C@@H](C)O3)cc1,5,5,0.3
CCC(=O)N1CC[C@@H]2[C@H]1c1cc(-c3ccccc3)ccc1N(C)[C@H]2CO,6,10,-3.3
O=C(C[C@H]1C=C[C@H](NS(=O)(=O)c2ccccc2)[C@@H](CO)O1)NCCN1CCCCC1,-2,-3,0.3
C[C@H](CO)N1C[C@H](C)[C@H](CN(C)Cc2ccccc2)OCCCC[C@H](C)Oc2ccc(NC(=O)Nc3ccc(F)cc3)cc2C1=O,5,-4,9.0
O=C(NCC[C@@H]1CC[C@@H](NC(=O)C2CC2)[C@@H](CO)O1)Nc1ccc(C(F)(F)F)cc1,2,4,-2.6
COc1ccc2c3c([nH]c2c1)[C@@H](CO)N(C(=O)NC1CCCC1)CC31CCN(S(C)(=O)=O)CC1,19,12,7.2
Cc1ccc(S(=O)(=O)Nc2ccc3c(c2)CC(=O)N([C@@H](C)CO)C[C@@H](C)[C@@H](CN(C)S(=O)(=O)c2ccccc2)O3)cc1,-1,-1,0.2
CCCNC(=O)N1[C@H](CO)[C@@H](c2ccc(-c3ccc(C(=O)N(C)C)cc3)cc2)[C@@H]1C#N,0,3,-3.1

# Random excerpt: 6 compounds from above.
SMILES,DUX4 txn inh,DUX4 txn inh difference,DUX4 txn inh control
CCC(=O)N1CC[C@@H]2[C@H]1c1cc(-c3ccccc3)ccc1N(C)[C@H]2CO,6,10,-3.3
COc1ccc2c3c([nH]c2c1)[C@@H](CO)N(C(=O)NC1CCCC1)CC31CCN(S(C)(=O)=O)CC1,19,12,7.2
C[C@H](CO)N1C[C@H](C)[C@H](CN(C)Cc2ccccc2)OCCCC[C@H](C)Oc2ccc(NC(=O)Nc3ccc(F)cc3)cc2C1=O,5,-4,9.0
COc1ccc(S(=O)(=O)Nc2ccc3c(c2)C(=O)N([C@H](C)CO)C[C@@H](C)[C@@H](CN(C)C(=O)Nc2c(C)noc2C)OCCCC[C@@H](C)O3)cc1,5,5,0.3
CCCNC(=O)N1[C@H](CO)[C@@H](c2ccc(-c3ccc(C(=O)N(C)C)cc3)cc2)[C@@H]1C#N,0,3,-3.1
Cc1ccc(S(=O)(=O)Nc2ccc3c(c2)CC(=O)N([C@@H](C)CO)C[C@@H](C)[C@@H](CN(C)S(=O)(=O)c2ccccc2)O3)cc1,-1,-1,0.2

# Additional compounds follow.
SMILES,DUX4 txn inh,DUX4 txn inh difference,DUX4 txn inh control
CO[C@@H]1CN(C)C(=O)c2cc(NC(=O)Nc3ccc(Cl)cc3)ccc2OC[C@@H](C)N(C)C[C@@H]1C,?,/,/
COc1ccc2c3c([nH]c2c1)[C@@H](CO)N(C(=O)c1ccccc1)CC31CN(C(=O)CC2CC2)C1,9,3,6.9
O=C(C[C@@H]1CC[C@H]2[C@@H](COC[C@@H](O)CN2CCc2ccccc2)O1)NCc1ccc(Oc2ccccc2)cc1,?,/,/
COc1cccc(NC(=O)C[C@H]2CC[C@H]3[C@@H](COc4ccc(NC(=O)C5CC5)cc4C(=O)N3C)O2)c1,-2,-4,2.5
CC=Cc1ccc2n(c1=O)C[C@@H]1[C@@H](CO)[C@H](C(=O)N3CCc4ccccc4C3)N(C(=O)C3CCC3)[C@H]21 (mixture of isomers),-9,6,-14
O=C(c1cccc(F)c1)N1CC[C@@H]2[C@H]1c1cc(C#Cc3ccc(F)cc3)ccc1N[C@@H]2CO,-14*,-30*,16*

# Source: PubChem BioAssay (Broad Institute)
